# NOMO-1 viab: NOMO-1 AML cell viability reduction, primary screen, STK33 inhibitor project, CellTiter-Glo luminescence; NOMO-1 AML viability, 72 h; 37,000 tested, 7.5% active; AID 2330, 2010; inhibition, % (concentration not given with the values);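 active means most replicates above 80%; inconclusive means exactly half above 80%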;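 further: wells of about 30 µL received 25 nL stock; 0% = median of vehicle wells and 100% = reference inhibitor level; the first replicate is given; inactives centre near 10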
# * marks the source's active call; other numbers are inactive results; ? = inconclusive. A portion of the library; count on the stated rates, not on these rows.
# Start of the listing, in advance:
canonical_smiles	NOMO-1 viab
C[C@@H]1CN([C@H](C)CO)C(=O)c2cccc(NC(=O)Nc3ccc4c(c3)OCO4)c2O[C@H]1CN(C)Cc1ccc(C(=O)Nc2ccccc2N)cc1	127*
COc1ccc(CN(C)C[C@H]2OCCCC[C@@H](C)Oc3ccc(NC(=O)CCC(F)(F)F)cc3C(=O)N([C@H](C)CO)C[C@@H]2C)cc1	45
Cc1ccc(N(C(C)C(=O)Nc2ccc(Cl)c(C(F)(F)F)c2)S(C)(=O)=O)cc1 (configuration not stated)	?
O=C(CCSc1nc(-c2ccco2)cc(C(F)(F)F)n1)N1CCN(c2ccccn2)CC1	-9

# Main list (from the top)
canonical_smiles	NOMO-1 viab
C[C@@H]1CN([C@H](C)CO)C(=O)c2cccc(NC(=O)Nc3ccc4c(c3)OCO4)c2O[C@H]1CN(C)Cc1ccc(C(=O)Nc2ccccc2N)cc1	127*
COc1ccc(CN(C)C[C@H]2OCCCC[C@@H](C)Oc3ccc(NC(=O)CCC(F)(F)F)cc3C(=O)N([C@H](C)CO)C[C@@H]2C)cc1	45
Cc1ccc(N(C(C)C(=O)Nc2ccc(Cl)c(C(F)(F)F)c2)S(C)(=O)=O)cc1 (configuration not stated)	?
O=C(CCSc1nc(-c2ccco2)cc(C(F)(F)F)n1)N1CCN(c2ccccn2)CC1	-9
C[C@@H]1CN([C@H](C)CO)C(=O)c2cc(NS(=O)(=O)c3cn(C)cn3)ccc2O[C@H]1CN(C)C	37
C[C@H](CO)N1C[C@H](C)[C@H](CN(C)CC2CC2)Oc2c(cccc2N(C)C)C1=O	14
C[C@H]1CN([C@@H](C)CO)C(=O)c2cc(NC(=O)Nc3ccc(C(F)(F)F)cc3)ccc2O[C@@H]1CN(C)C(=O)Nc1ccc(C(F)(F)F)cc1	122*
Cc1cc(C(=O)Nc2cccc3c2O[C@@H](CN(C)C(=O)Nc2ccc4c(c2)OCO4)[C@H](C)CN([C@@H](C)CO)C3=O)n(C)n1	11
C[C@@H]1CN([C@H](C)CO)C(=O)c2cc(N(C)C)ccc2O[C@H]1CN(C)S(=O)(=O)c1ccccc1	19
Cc1ccc(S(=O)(=O)Nc2cccc3c2O[C@@H](CN(C)C(=O)Nc2c(C)noc2C)[C@@H](C)CN([C@H](C)CO)C3=O)cc1	-5
C[C@@H]1CCCCO[C@H](CN(C)S(=O)(=O)c2ccccc2)[C@@H](C)CN([C@H](C)CO)C(=O)c2cc(NS(C)(=O)=O)ccc2O1	-3
CC(C)NC(=O)N(C)C[C@@H]1OCCCC[C@@H](C)Oc2ccc(NS(=O)(=O)c3cn(C)cn3)cc2C(=O)N([C@H](C)CO)C[C@@H]1C	-2
COc1ccc(S(=O)(=O)N(C)C[C@@H]2Oc3c(NC(=O)C4CC4)cccc3C(=O)N([C@H](C)CO)C[C@@H]2C)cc1	10
C[C@@H]1CCCCO[C@H](CN(C)Cc2ccc(C(=O)O)cc2)[C@@H](C)CN([C@H](C)CO)C(=O)c2cc(NC(=O)Cc3ccccc3)ccc2O1	9
CC(C)(C)c1ccc(-c2nnc(SCC(=O)Nc3ccccc3[N+](=O)[O-])o2)cc1	8
Cc1nn(CC(=O)Nc2cccc(C(F)(F)F)c2)c(C)c1[N+](=O)[O-]	12
C[C@@H]1CCCCO[C@H](CN(C)S(=O)(=O)c2ccc(Cl)cc2)[C@@H](C)CN([C@H](C)CO)C(=O)c2cc(N(C)C)ccc2O1	22
C[C@H](CO)N1C[C@H](C)[C@@H](CN(C)S(=O)(=O)c2ccc(Cl)cc2)Oc2ccc(NS(=O)(=O)c3cccs3)cc2C1=O	7
O=C(NCc1ccccn1)c1ccccc1C(=O)c1ccccc1	5
Cc1ccc(S(=O)(=O)N(C)C[C@@H]2Oc3ccc(NC(=O)Nc4c(C)noc4C)cc3CC(=O)N([C@H](C)CO)C[C@@H]2C)cc1	11
C[C@@H]1CCCCO[C@H](CN(C)Cc2ccc(Cl)c(Cl)c2)[C@@H](C)CN([C@H](C)CO)C(=O)c2cc(NS(=O)(=O)c3ccc(F)cc3)ccc2O1	61
CNC[C@H]1Oc2c(NC(=O)Nc3cccc4ccccc34)cccc2C(=O)N([C@H](C)CO)C[C@@H]1C	-12
C[C@@H]1CN([C@H](C)CO)C(=O)c2cc(NC(=O)Cc3ccccc3)ccc2O[C@H]1CN(C)Cc1ccccc1	34
C[C@@H]1CCCCO[C@@H](CN(C)Cc2ccncc2)[C@@H](C)CN([C@H](C)CO)C(=O)c2cc(NS(=O)(=O)c3ccccc3)ccc2O1	-5
C[C@@H]1CCCCO[C@@H](CN(C)Cc2ccc3c(c2)OCO3)[C@@H](C)CN([C@H](C)CO)C(=O)c2cc(NC(=O)CCC(F)(F)F)ccc2O1	-2
CS(=O)(=O)N(CC(=O)Nc1ccc(Br)c(Cl)c1)c1ccc(F)c(Cl)c1	32
C=C1CC[C@@H]2[C@](C)(CO)[C@H](O)CC[C@@]2(C)[C@@H]1C/C=C1/C(=O)OC[C@H]1O	108*
C[C@@H]1CN([C@H](C)CO)C(=O)c2cc(NC(=O)C3CC3)ccc2O[C@@H]1CN(C)Cc1ccncc1	3
Cc1c(NC(=S)NCc2ccccn2)c(=O)n(-c2ccccc2)n1C	5
Cc1ccc(NC(=O)Cn2cnc3sc(C(=O)OC(C)C)c(C)c3c2=O)cc1	66

# 4 records drawn at random from the list so far, as already listed:
canonical_smiles	NOMO-1 viab
C=C1CC[C@@H]2[C@](C)(CO)[C@H](O)CC[C@@]2(C)[C@@H]1C/C=C1/C(=O)OC[C@H]1O	108*
Cc1ccc(NC(=O)Cn2cnc3sc(C(=O)OC(C)C)c(C)c3c2=O)cc1	66
C[C@@H]1CCCCO[C@H](CN(C)S(=O)(=O)c2ccc(Cl)cc2)[C@@H](C)CN([C@H](C)CO)C(=O)c2cc(N(C)C)ccc2O1	22
C[C@@H]1CCCCO[C@@H](CN(C)Cc2ccc3c(c2)OCO3)[C@@H](C)CN([C@H](C)CO)C(=O)c2cc(NC(=O)CCC(F)(F)F)ccc2O1	-2

# (more compounds)
canonical_smiles	NOMO-1 viab
CC1(C)C(=O)C=CC2(C)C1CC(O)C1(C)C3=CCC(c4ccoc4)C3(C)CCC21 (configuration not stated)	119*
COc1ccccc1NC(=O)CC(NC1CCCCC1)C(=O)O (configuration not stated)	-4
CC(Sc1nc(-c2ccccc2)cc(-c2ccccc2)n1)C(=O)Nc1ccccc1 (configuration not stated)	57
CNC[C@@H]1Oc2c(NS(=O)(=O)c3cccs3)cccc2C(=O)N([C@H](C)CO)C[C@H]1C	23
O=C(CCCOc1ccc(Cl)cc1Cl)Nc1c[nH]c(=O)[nH]c1=O	-9
C[C@@H]1CCCCO[C@H](CN(C)C)[C@@H](C)CN([C@H](C)CO)C(=O)c2cc(NC(=O)Nc3ccccc3)ccc2O1	-7
C[C@H]1CN([C@@H](C)CO)C(=O)Cc2cc(N(C)C)ccc2O[C@@H]1CN(C)C(=O)NC1CCCCC1	1
C[C@@H]1CN([C@H](C)CO)C(=O)c2cc(NC(=O)CCC(F)(F)F)ccc2O[C@H]1CN(C)Cc1ccc(-c2ccccc2)cc1	60
Cc1nn(C(=O)Cn2nc([N+](=O)[O-])cc2C)c(C)c1Cl	-12
C[C@@H]1CN([C@@H](C)CO)C(=O)c2cc(NC(=O)C3CC3)ccc2O[C@@H]1CN(C)C(=O)Nc1ccc(F)cc1	12
CC(C)(C)c1ccc(OCC(=O)Nc2ccc(C(=O)Nc3ccccc3C(=O)O)cc2)cc1	-3
C[C@@H]1CCCCO[C@@H](CN(C)C(=O)Nc2ccc3c(c2)OCO3)[C@@H](C)CN([C@H](C)CO)C(=O)c2cc(NS(=O)(=O)c3ccc(Cl)cc3)ccc2O1	38
CCn1c(SCC(=O)Nc2cc(Cl)cc(Cl)c2)nnc1-c1ccc(C)cc1	43
Cc1ccc(S(=O)(=O)Nc2ccc3c(c2)CC(=O)N([C@H](C)CO)C[C@@H](C)[C@H](CN(C)C(=O)Nc2ccc4c(c2)OCO4)O3)cc1	4
C[C@@H]1CN([C@H](C)CO)C(=O)Cc2cc(NC(=O)c3ccncc3)ccc2O[C@H]1CN(C)Cc1ccc(Cl)c(Cl)c1	34
Cc1ccc2c(c1)c(C)c(C)n2CC(O)Cn1nc(C)c(Br)c1C (configuration not stated)	?
C[C@@H]1CN([C@@H](C)CO)C(=O)c2cccc(NC(=O)CCCCCC(=O)Nc3ccccc3N)c2O[C@H]1CN(C)Cc1ccc(Cl)c(Cl)c1	138*
C[C@@H]1CN([C@H](C)CO)C(=O)c2cc(NC(=O)Nc3ccc(C(F)(F)F)cc3)ccc2O[C@H]1CN(C)Cc1ccccc1	76
COC(=O)c1c(NC(=O)c2ccc(C)c(S(=O)(=O)Nc3ccccc3C)c2)sc2c1CCCC2	44
C[C@H](CO)N1C[C@H](C)[C@@H](CN(C)S(=O)(=O)c2ccc(F)cc2)Oc2ccc(NS(C)(=O)=O)cc2C1=O	6
C[C@H](CO)N1C[C@H](C)[C@H](CN(C)C(=O)Nc2ccc3c(c2)OCO3)Oc2ccc(NS(=O)(=O)c3ccc(Cl)cc3)cc2CC1=O	19
CC(=O)c1cccc(NC(=O)CCCn2cc([N+](=O)[O-])cn2)c1	-9
C[C@@H]1CN([C@@H](C)CO)C(=O)c2cc(NC(=O)Nc3ccccc3)ccc2O[C@@H]1CN(C)CC1CC1	-1
COc1ccc2c(c1)N(C(=O)CSc1nnc(C)n1-c1ccc(F)cc1)C(C)(C)C=C2C	-1
CC(C)Oc1cccc(-c2cc(C(=O)NCc3ccco3)c3ccccc3n2)c1	47
CC1(C)CC[C@]2(C(=O)O)CC[C@]3(C)C(=CCC4[C@@]5(C)CC[C@H](O[C@@H]6O[C@H](C(=O)O)[C@@H](O[C@@H]7OC[C@@H](O)[C@H](O)[C@H]7O)[C@H](O)[C@H]6O)C(C)(C)C5CC[C@]43C)C2C1 (some centres not stated)	116*
C[C@@H]1CN([C@H](C)CO)C(=O)c2cccc(NS(=O)(=O)c3cccs3)c2O[C@H]1CN(C)S(=O)(=O)c1cn(C)cn1	10
COc1ccc(S(=O)(=O)Nc2cccc3c2O[C@@H](CN(C)C(=O)Nc2ccccc2)[C@@H](C)CN([C@@H](C)CO)C3=O)cc1	26
COc1ccc(NC(=O)N(C)C[C@H]2Oc3ccc(NC(=O)NC(C)C)cc3CC(=O)N([C@@H](C)CO)C[C@@H]2C)cc1	3
C[C@H](CO)N1C[C@H](C)[C@@H](CN(C)C)Oc2c(NC(=O)Nc3ccc4c(c3)OCO4)cccc2C1=O	-2
COc1ccc(NC(=O)Nc2ccc3c(c2)C(=O)N([C@H](C)CO)C[C@H](C)[C@@H](CN(C)Cc2ccc(-c4ccccc4)cc2)O3)cc1	?
CC(=O)Nc1ccc(C(=O)CSc2nnc(-c3cccc(Br)c3)o2)cc1	11
COc1ccc(NC(=O)N(C)C[C@H]2Oc3ccc(NC(=O)Nc4ccc5c(c4)OCO5)cc3C(=O)N([C@@H](C)CO)C[C@@H]2C)cc1	2
COc1ccc(NC(=O)N(C)C[C@@H]2OCCCC[C@@H](C)Oc3ccc(NS(=O)(=O)c4ccc(C)cc4)cc3C(=O)N([C@H](C)CO)C[C@@H]2C)cc1	35
C[C@H](CO)N1C[C@H](C)[C@H](CN(C)C(=O)Nc2cccc3ccccc23)Oc2c(NC(=O)Nc3ccc(C(F)(F)F)cc3)cccc2C1=O	77
C[C@@H]1CN([C@H](C)CO)C(=O)c2cccc(NC(=O)Nc3ccc(C(F)(F)F)cc3)c2O[C@@H]1CN(C)S(=O)(=O)c1cccs1	101*
COC(=O)C1=COC(O[C@@H]2O[C@H](CO)[C@@H](O)[C@H](O)[C@H]2O)[C@@H]2[C@@](C)(O)CC[C@]12O (some centres not stated)	29
Cc1ccc([N+](=O)[O-])cc1N(CC(=O)Nc1cccc(F)c1)S(C)(=O)=O	40
CCN(C)CC12CC3CC(CC(C3)C1)C2	3
C[C@@H]1CN([C@H](C)CO)C(=O)c2cc(NS(C)(=O)=O)ccc2O[C@H]1CN(C)C	-14
C[C@@H]1CN([C@@H](C)CO)C(=O)c2cc(NS(=O)(=O)c3ccc(F)cc3)ccc2O[C@@H]1CN(C)Cc1ccc(-c2ccccc2)cc1	111*
C[C@@H]1CN([C@H](C)CO)C(=O)c2cc(NC(=O)C3CCCCC3)ccc2O[C@@H]1CN(C)C(=O)Nc1ccc2c(c1)OCO2	35
NCCSC12CC3CC(CC(C3)C1)C2	40
Cc1nc(SCC(=O)Nc2ccccc2)n[nH]1	-4
O=C(O)c1ccccc1N1C(=O)c2ccccc2C1=O	3
NC(=O)c1c(NC(=O)CCSc2nc(-c3ccco3)cc(C(F)(F)F)n2)sc2c1CCCC2	38
CN(/N=C/c1ccccc1)C1=NS(=O)(=O)c2ccccc21	45
CSc1cccc(NC(=O)CSc2nnc(-c3ccc(Br)cc3)n2C)c1	25
C[C@@H]1CN([C@@H](C)CO)C(=O)c2cc(NS(=O)(=O)c3ccc(Cl)cc3)ccc2O[C@H]1CN(C)S(C)(=O)=O	-3
C[C@H]1CN([C@@H](C)CO)C(=O)c2cc(NS(C)(=O)=O)ccc2O[C@H]1CN(C)S(=O)(=O)c1ccccc1	9
COc1ccc(CCN2C(=O)C(NC(=O)C(C)(C)C)(C(F)(F)F)C3=C2CC(C)(C)CC3=O)cc1OC (configuration not stated)	4
C[C@@H]1CN([C@H](C)CO)C(=O)c2cccc(NC(=O)NC3CCCCC3)c2O[C@@H]1CN(C)C(=O)Nc1ccc2c(c1)OCO2	39
CC(C)NC(=O)Nc1ccc2c(c1)CC(=O)N([C@H](C)CO)C[C@@H](C)[C@@H](CN(C)Cc1ccc3c(c1)OCO3)O2	25
C[C@@H]1CN([C@@H](C)CO)C(=O)c2cc(NC(=O)CCC(F)(F)F)ccc2O[C@H]1CN(C)Cc1ccc(C(=O)O)cc1	-2
Cn1c(=O)c2c(nc(NCC(O)CO)n2Cc2ccc(Cl)cc2)n(C)c1=O (configuration not stated)	13
CCc1ccc(NC(=O)COc2ccc(NC(C)=O)cc2)cc1	3

# From PubChem BioAssay
